Source: PubChem BioAssay (several laboratories)
ugtP null kill: compounds lethal to S. aureus RN4220 ugtP deletion mutant | AID 1259309 | OD600 growth, 16 h; some inactives read as strong as hits | 330,000 tested, 0.54% active | growth inhibition, % (concentration not given with the values);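 active means z-score under -3 and OD600 up to 0.15 on both plates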;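 further: plate controls were untreated wells for no effect and antibiotic for full effect; wells of about 80 µL received 100 nL stock; the first replicate is given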
BJeLR lethal: BJeLR cell viability loss. inhibition, % (concentration not given with the values). 300,000 tested, 0.17% active. AID 1554. BJeLR (HRASV12) viability, CellTiter-Glo ATP luminescence, 48 h; reference of the scale not given here;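 active means replicate mean above 50%; inconclusive means above 50% but judged a plate artefact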;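 further: 50 nL library stock added to about 25 µL; numbers are from one replicate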
Sa RN4220 lethal: kills Staphylococcus aureus RN4220; S. aureus RN4220 growth, OD600, 16 h; inhibition, % (no concentration beside the values); 330,000 tested, 0.33% active; AID 1259311;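 active means z-score of -3 or lower and OD600 up to 0.18 on both plates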;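 further: plate controls were untreated cells for no effect and reference antibiotic for full effect; stock transfer was 100 nL into about 80 µL; one replicate is shown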
Mtb hypoxia rep: reduces hypoxia-regulated biosensor signal in M. tuberculosis; AID 1159583; M. tuberculosis hypoxia-regulated fluorescent reporter, fluorescence; fluorescence inhibition, % (test concentration not listed); 300,000 tested, 0.1% active;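 active means 35 to 45% if threefold the growth effect, above 45% if 1.5-fold the growth effect; inactive means the rest, general growth blockers included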;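 further: wells of about 50 µL received 100 nL stock; 0% = vehicle wells and 100% = reference inhibitor wells; whole bacteria with a GFP reporter of the hypoxia response; strong numbers were not always called active; many hits fall short of the cut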
Autofluor counter: compound fluorescence in toxin protease inhibitor counterscreen; fluorescence intensity (test concentration not listed); AID 624483; 360,000 tested, 3.1% active; compound autofluorescence counterscreen, microsphere flow cytometry; active compounds read high;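 active means at least 3 SD above the mean of all compounds, about 16000 in these data; inconclusive means too few beads counted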;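 further: 100 nL of 1 mM stock went into each well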
PrP UTR inh: inhibition of PrP 5' UTR reporter expression; 340,000 tested, 0.35% active; cell-based PrP 5' UTR mRNA reporter, plate reader; AID 488862; inhibition, % (no concentration beside the values);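 active means every replicate at 50% or more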;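 further: 0 = median of the neutral control wells; tested in H4 reporter cells; numbers are from one replicate; inactives centre near -14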
Mtb hypoxia rep growth: second read-out of Mtb hypoxia rep, no call of its own (marks repeat the call); growth inhibition, %; measured here: M. tuberculosis growth (absorbance);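 0% = vehicle and 100% = reference antibiotic; read after six days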
Starred values were filed as active, the others as inactive; ? = inconclusive; . = no result given.

SMILES	ugtP null kill	BJeLR lethal	Sa RN4220 lethal	Mtb hypoxia rep	Mtb hypoxia rep growth	Autofluor counter	PrP UTR inh
CN(C)C(Cc1ccccc1)C(=O)c1ccccc1 (centres undefined)	3.3	3.1	6.9	7.7	4.8	1945	6.0
O=C(OCCCN=C1NS(=O)(=O)c2ccccc21)c1ccccc1	2.4	2.9	3.3	8.3	15.3	6010	-7.0
CC1(C)SC2C(C(=O)OCc3ccccc3)NC(=O)N2C1C(=O)OCc1ccccc1 (centres undefined)	-19.2	.	7.8	12.9	10.7	.	.
COC(=O)NN=Cc1ccccc1Cl	6.1	.	2.0	12.3	3.4	.	.
FC(F)(F)c1cccc(Oc2nc(-c3ccccc3)nnc2C(F)(F)F)c1	-2.9	-2.5	6.3	-0.5	10.3	6258	-18.4
O=C(NN=C/C=C/c1ccccc1)c1ccc(Br)cc1	5.3	.	6.2	-2.2	2.2	.	.
CS(=O)(=O)N(CC(=O)N1CCN(c2ccccc2F)CC1)C1CCCCC1	1.8	-6.9	2.0	4.8	10.5	11157	-14.5
CCCCCO	7.6	.	4.3	10.7	5.1	6007	-18.9
Cc1cc(C)c2oc(C(=O)Nc3ccc(S(=O)(=O)Nc4nccc(C)n4)cc3)cc(=O)c2c1	9.0	-1.6	2.0	15.8	14.3	4735	-1.6
COc1cc(/C=C2\SC(N)=NC2=O)cc(OC)c1	2.6	4.5	2.2	12.5	-3.0	3246	-12.4
CC(/C=C/c1ccc2c(c1)OCO2)=NNC(=O)C(O)c1ccccc1 (centres undefined)	-0.5	.	4.4	16.4	-1.5	.	.
COc1ccccc1NC(=O)NCc1ccco1	12.2	9.0	5.2	13.4	8.4	4639	-2.9
COc1ccc(C(C)=O)cc1CC(=O)NC1CCCCCC1	9.1	-19.4	-0.9	3.5	1.1	4225	-24.4
CC[n+]1c(/C=C(\C)OC)sc2ccccc21	-0.8	.	-0.3	2.5	4.4	4602	-14.3
Cc1ccc(CNC(=O)COC(=O)C2CCN(S(=O)(=O)c3cccs3)CC2)cc1	-1.4	-0.2	1.2	7.3	4.6	2219	-26.0
CC1=C(C(=O)Nc2ccc(C)cc2)C(c2ccco2)NC(=O)N1 (centres undefined)	-2.3	-4.2	-7.9	7.8	-2.3	2535	-6.6
C/C=C/C=NNC(=O)CN(c1ccc(Br)cc1)S(=O)(=O)c1ccccc1	7.5	.	2.9	9.5	0.6	.	.
CC(=O)Nc1ccc(-c2csc(NC(=O)Cc3ccccc3F)n2)cc1	-8.7	-4.9	3.4	13.7	6.6	4980	-17.7
Cc1c(/C=N/NC(=O)c2cc(Br)ccc2O)c(=O)n(C)c(=O)n1C	.	0.1	.	.	.	3573	-2.5
O=C(/C(C=Nc1cccc(C(F)(F)F)c1)=C(/O)c1ccco1)C(F)(F)F	-3.7	-3.4	-2.0	1.6	3.6	2289	-45.5
COc1cc(NC(=O)CSc2nnc3c(C)cc4c(C)ccc(C)c4n23)c(C(=O)O)cc1OC	0.4	10.5	-1.4	1.4	4.1	2707	-4.4
Cc1nn(-c2ccccc2)c(Cl)c1C1C(C#N)=C(N)OC2=C1C(=O)CCC2 (centres undefined)	0.6	-8.8	5.0	-2.4	7.3	3668	-21.3
CCOC(=O)c1c(NC(=O)CCC(=O)N2CCOCC2)sc2c1CC(C)(C)OC2	7.1	-3.5	11.4	.	.	3260	-17.2
CN(Cc1ccccc1)C(=O)c1cccc(NC(=O)Cc2ccc(NC(=O)C3CCCN(C(=O)C4CCCC4)C3)cc2)c1 (centres undefined)	10.2	.	5.4	-1.4	5.2	3557	-21.8
CCN1CCN(C(=O)c2ccc(CN(c3ccccc3)S(=O)(=O)c3ccccc3)cc2)CC1	3.4	5.8	1.7	-4.5	6.2	2339	-12.3
Continuation:
SMILES	ugtP null kill	BJeLR lethal	Sa RN4220 lethal	Mtb hypoxia rep	Mtb hypoxia rep growth	Autofluor counter	PrP UTR inh
COC(=O)C1=C(C(=O)c2ccccc2)C(c2ccc(OC)c(OC)c2)Nc2nnnn21 (centres undefined)	-1.7	-4.4	3.7	.	.	4804	-23.6
c1ccc2nc3[nH]cnc3nc2c1	6.0	0.9	5.2	-1.4	3.2	11075	-31.6
COC(=O)Cn1cnc2c1c(=O)n(C)c(=O)n2C	5.6	11.2	6.7	2.5	9.1	2819	-2.3
C/C=C(\C)C(=O)NCCN1C2=NC[C@@H](C)N2C[C@@H]1Cc1ccc(OC)cc1	.	-1.1	.	.	.	4204	-14.9
CCN(CC)S(=O)(=O)c1cc(NC(=O)C2=COCCO2)ccc1Cl	9.0	-3.6	3.6	2.9	-2.5	?	-2.4
Cc1cccc(N2Cc3ccc(Br)cc3C2)c1	-13.4	2.2	2.4	-6.1	4.0	4109	-50.0
NC(=O)c1c(NC(=O)CSc2nc(N)cc(=O)[nH]2)sc2c1CCCC2	.	-1.5	.	.	.	4528	-14.6
CCCCC(CC)C(=O)Nc1cc([N+](=O)[O-])ccc1F (centres undefined)	-0.6	-11.0	2.4	-1.6	5.5	2491	-6.3
CCOC(=O)Nc1ccc(S(=O)(=O)N2CCOCC2)cc1	1.3	6.1	0.1	0.8	-0.3	10202	-5.9
CC1CC2=C(NC(=S)NC2c2ccc(F)cc2)/C(=C/c2ccc(F)cc2)C1 (centres undefined)	45.4	-5.1	-2.0	8.3	2.2	8231	-24.1
Cc1cc(NC(=O)OC2CCCCC2)ccc1[N+](=O)[O-]	-23.4	-4.4	-6.7	0.8	2.6	6002	-90.9
C/C(=N\Nc1ccc(S(N)(=O)=O)cc1[N+](=O)[O-])c1ccc2c(c1)OCO2	.	-8.5	.	.	.	4171	-10.1
O=C(c1c[nH]c(C(=O)C(Cl)(Cl)Cl)c1)c1c(F)cccc1F	13.3	10.5	-0.9	-2.9	-11.6	4183	-24.5
COc1cc(OC)cc(C(=O)NCC(=O)OCC(=O)Nc2ccc(C)c(S(=O)(=O)N3CCOCC3)c2)c1	9.5	.	4.7	2.4	8.3	?	6.7
Cc1ccccc1OCC(=O)N/N=C/c1cccc(Oc2ccc([N+](=O)[O-])cc2[N+](=O)[O-])c1	.	18.2	.	.	.	9126	-28.4
CC(=O)Nc1cccc2ncccc12	8.4	-2.5	1.0	5.2	-3.5	7485	-38.5
C/C(CC(=O)Nc1ccccc1[N+](=O)[O-])=N\NC(=O)COc1ccccc1C	.	1.1	.	.	.	3076	-22.7
Clc1cccc(Cl)c1Cn1nnc(N2CCCC2)n1	3.3	-3.8	1.9	35.5*	21.4*	.	-21.2
CC1(C)CC(=O)C=C(Nc2ccc3c(c2)CCC3)C1	3.7	6.8	6.9	10.4	3.0	.	.
C/C(CC1(O)/C(=N/O)CCc2nonc21)=N\O (centres undefined)	.	-3.6	.	.	.	6604	-22.0
COCCNC(=O)Cc1c(C)c2c(cc(C)c3c(C(C)(C)C)coc32)oc1=O	10.3	3.2	3.5	19.9	10.4	2937	-16.4
COc1cc(CC(=O)OCn2nnc3ccccc3c2=O)cc(OC)c1OC	7.3	-2.1	-13.5	12.8	0.2	3428	-9.5
O=C(NC1CCCCC1)C1c2ccccc2C(=O)N1Cc1ccco1 (centres undefined)	2.2	13.5	2.8	4.4	6.8	9884	-11.6
CCCC(=O)N1CCN(c2nc3ccc(Cl)cc3s2)CC1	-2.2	13.7	4.3	3.7	-3.1	6066	-54.0
CCCNC(=O)/C=C/C(=O)O	-0.9	-5.3	-1.0	-16.8	-1.9	2155	-14.5

Pulled by structure from the entries so far, 6 records:
SMILES	ugtP null kill	BJeLR lethal	Sa RN4220 lethal	Mtb hypoxia rep	Mtb hypoxia rep growth	Autofluor counter	PrP UTR inh
C/C(CC(=O)Nc1ccccc1[N+](=O)[O-])=N\NC(=O)COc1ccccc1C	.	1.1	.	.	.	3076	-22.7
CC1(C)CC(=O)C=C(Nc2ccc3c(c2)CCC3)C1	3.7	6.8	6.9	10.4	3.0	.	.
Clc1cccc(Cl)c1Cn1nnc(N2CCCC2)n1	3.3	-3.8	1.9	35.5*	21.4*	.	-21.2
CCN(CC)S(=O)(=O)c1cc(NC(=O)C2=COCCO2)ccc1Cl	9.0	-3.6	3.6	2.9	-2.5	?	-2.4
CC1CC2=C(NC(=S)NC2c2ccc(F)cc2)/C(=C/c2ccc(F)cc2)C1 (centres undefined)	45.4	-5.1	-2.0	8.3	2.2	8231	-24.1
CC(=O)Nc1cccc2ncccc12	8.4	-2.5	1.0	5.2	-3.5	7485	-38.5

Next entries:
SMILES	ugtP null kill	BJeLR lethal	Sa RN4220 lethal	Mtb hypoxia rep	Mtb hypoxia rep growth	Autofluor counter	PrP UTR inh
COc1cc(CCCN2C(=O)C(=O)NC[C@H]2Cc2cccc3ccccc23)cc(OC)c1OC	.	-6.7	.	.	.	4015	-1.9
COc1ccc(/C=C(\C#N)C(=O)OCC(=O)NCc2ccccc2)cc1	4.7	4.8	2.9	9.1	8.0	2541	-8.0
COC(=O)C1=C(C)NC2=C(C(=O)CCC2)C1c1cccc(C)n1 (centres undefined)	2.3	1.0	4.0	0.5	-1.3	10380	-16.5
CCN(CC)S(=O)(=O)c1ccc2oc(C(=O)Nc3ccc(OC)cc3OC)c(C)c2c1	-3.8	-1.7	7.6	2.4	4.2	24222*	-12.7
Cc1ccn2c(c1)nc(=O)c1cc(S(=O)(=O)N3CCCCC3)ccc12	.	-2.2	.	.	.	3910	-2.5
COC(=O)c1cc(S(=O)(=O)N(C)C2CCCCC2)c[nH]1	7.0	0.6	2.5	15.6	7.4	5488	-7.0
CCOC(=O)CC1C(=O)NCCN1C(=O)c1ccc(F)cc1F (centres undefined)	-3.3	19.1	2.4	7.3	-2.7	3156	-19.6
Cc1cccc(C(=O)Nc2sc(C)c(-c3ccccc3)c2C#N)c1	16.9	-0.4	-6.5	-5.5	12.7	2262	-122.4
NS(=O)(=O)c1ccc(S(=O)(=O)N(Cc2ccccc2F)CC2CCCO2)cc1 (centres undefined)	3.9	-2.6	1.5	-3.7	7.0	9385	-35.7
CC1CCN(C(=O)CN(Cc2ccccc2)S(C)(=O)=O)CC1	1.9	-0.3	8.4	17.4	3.7	3969	-8.3
O=C(O)/C=C/C(=O)N1CCN(Cc2ccc3c(c2)OCO3)CC1	-5.5	7.5	-0.3	-11.3	6.1	3832	-12.6
CCOC(=O)CSc1nnc(-c2ccc3ncccc3c2)n1C	1.8	-4.9	-0.7	-13.0	3.1	6139	-15.8
COc1ccc(C(=O)OCC(=O)NC2CC2)cc1S(=O)(=O)Nc1ccc(C)cc1	9.3	.	4.2	6.2	-9.6	6111	-3.7
O=C(O)c1ccccc1C1Nc2ccccc2C(=O)N1CCCN1CCOCC1 (centres undefined)	2.2	1.1	4.4	15.1	8.8	.	.
CCCCn1c(SCC(=O)/C(C#N)=C(\C)N)nc2ccccc2c1=O	-2.4	4.8	1.0	3.8	9.7	9304	-7.5
COc1ccc(C(=O)Nc2c(Cl)cc(Cl)cc2C(=O)N2CCC(C)CC2)cc1	3.5	-23.6	2.3	6.0	2.7	2381	-21.2
O=[N+]([O-])c1cc(S(=O)(=O)N2CCCC2)ccc1NN=Cc1ccncc1	0.3	.	7.6	-3.7	4.5	.	.
CCCOc1ncnc2c1[nH]c1ccc(OC)cc12	0.4	-5.3	1.8	12.5	9.7	6098	-60.1
COc1ccc(NC(=O)c2cccnc2SC)cc1OC	4.4	5.1	11.1	-1.7	2.5	4359	-19.4
Cn1c(=O)[nH]c(NC2CCCCC2)c([N+](=O)[O-])c1=O	-3.9	0.4	3.6	-1.5	7.9	1833	-16.1
Cc1ccc(C(C#N)c2ccc(C(=O)c3ccc(F)cc3)cc2)cc1 (centres undefined)	-1.5	7.2	-0.3	0.7	-1.8	2937	-19.6
Cc1ccc(S(=O)(=O)N(C)C)cc1NC(=O)c1cccnc1Oc1ccccc1	18.5	-0.2	4.3	5.5	-0.7	5796	.
Cc1ccc(OCc2n[nH]c(=S)n2-c2ccc(C)cc2)cc1	2.5	7.5	5.5	8.1	1.0	4598	-13.7
COc1ccc(OC)c(/C=C(\NC(=O)c2ccccc2)C(=O)N/N=C/c2ccc(C)s2)c1	.	-9.7	.	.	.	7810	-13.3
COc1cccc(OC)c1C(=O)NC(=O)Nc1c(C)cccc1C	6.5	3.3	2.5	-9.5	0.4	3544	-4.5
NC(=O)C1CCN(C(=O)c2ccc([N+](=O)[O-])cc2NC(=O)c2cccs2)CC1	-1.9	4.3	-2.6	-7.9	-5.8	4506	6.6
O=C(CN1C(=O)/C(=C/c2ccccc2F)SC1=S)NC1C=CS(=O)(=O)C1 (centres undefined)	-11.6	-13.4	2.4	-1.0	-2.8	5392	-13.0

Rows are unselected. About 4% of those tested had a hit in this group.
